# Mtb H37Rv = Confirmatory growth inhibition assay against Mycobacterium tuberculosis H37Rv, potency (AID 1949); most inactive calls were filed without a number and no value below 0 was filed; inhibition, % at 10 µg/mL, or IC50 in µg/mL where a hit was titrated; hit rate 1.6% among 100,000;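 active means confirmed in a dose series; inconclusive means about 50% or more but not retested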;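 further: bacteria grown 7 days with compound before Alamar blue readout; 0% = untreated bacteria and 100% = reference antibiotic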
# An asterisk follows results filed as active; i = inactive; u = inconclusive. This is a subset; the hit share may differ from the screen's.
molecule | Mtb H37Rv
CCOc1ccc(Br)cc1C1C2=C(CCCC2=O)N(CC(=O)O)C2=C1C(=O)CCC2 | i
Cc1ccc(-c2nnc(SC3CCCCC3)c3ccccc23)cc1 | 28%
COC(=O)c1ccc(C(=O)OC)c(NS(C)(=O)=O)c1 | i
Cc1ccc(OC(F)F)c(NC(=O)Nc2ccc3c(c2)OCO3)c1 | i
CCc1ccc(OCC(=O)Nc2ccc([N+](=O)[O-])cc2OC)c(Br)c1 | 9%
Cc1nn(-c2ccccc2)c(C)c1S(=O)(=O)O | i
O=C(Cc1ccc([N+](=O)[O-])cc1)Nc1ccccc1C(=O)N1CCCC1 | i
Cc1cccc(C)c1NC(=O)CCc1ccccc1 | 41%
Cc1cc(NC(=O)COc2ccc(Cl)cc2C)no1 | i
O=C(CSc1nnc(NC(=O)c2ccccc2Br)s1)Nc1ccccc1[N+](=O)[O-] | i
Cc1ccc(C(C)C)c(OCCN2CC(C)OC(C)C2)c1 (stereo unspecified) | i
CCOC(=O)c1ccc(NC(=S)NCc2cnn(CC)c2)cc1 | i
Cn1c(-c2ccc(Cl)cc2)n[nH]c1=S | 13%
CCOC(=O)COc1cc(Cl)c(C2NC(=O)NC(c3ccccc3)=C2C(C)=O)cc1OC (stereo unspecified) | i
CS(=O)(=O)CCC(C(=O)N1CCCCC1)N1C(=O)c2cc(Cl)c(Cl)cc2C1=O (stereo unspecified) | i
CCOC(=O)c1cc(-c2ccccc2)sc1NC(=O)c1cc(OC)cc(OC)c1 | i
CC1=C(C(=O)OCC2CCCO2)C(c2ccsc2)C2=C(CCCC2=O)N1 (stereo unspecified) | i
Cc1cc(C)c(NC(=O)c2ccccc2C(=O)Nc2c(C)cc(C)cc2C)c(C)c1 | i
COc1ccc(-c2csc3ncn(CC(=O)Nc4ccc(Cl)cc4C)c(=O)c23)cc1 | i
CC1(C)CC(=O)c2cc3c(N)c(C(=O)NC4CCCCC4)sc3nc2C1 | 9%

# Overlap with the part before: 4 entries, then new ones.
molecule | Mtb H37Rv
CC1=C(C(=O)OCC2CCCO2)C(c2ccsc2)C2=C(CCCC2=O)N1 (stereo unspecified) | i
Cc1cc(C)c(NC(=O)c2ccccc2C(=O)Nc2c(C)cc(C)cc2C)c(C)c1 | i
COc1ccc(-c2csc3ncn(CC(=O)Nc4ccc(Cl)cc4C)c(=O)c23)cc1 | i
CC1(C)CC(=O)c2cc3c(N)c(C(=O)NC4CCCCC4)sc3nc2C1 | 9%
CCOc1ccc(-n2c(Cc3ccccc3)nnc2SCC(=O)NCc2ccccc2)cc1 | i
Cc1cc(OCC(=O)Nc2ccc(OC(C)C)cc2)ccc1Cl | i
CCc1sc(NC(=O)CSc2ccccc2)nc1-c1ccccc1 | 2%
COc1ccccc1OCC(=O)Nc1ccc([N+](=O)[O-])cc1C | i
O=C(CCS(=O)(=O)Cc1ccccc1)NCc1ccc2c(c1)OCO2 | i
COc1cccc2cc(C(=O)Oc3cc(C)c(CN4CCOCC4)cc3C)c(=O)oc12 | i
Cn1c(CN2CCCC2)nc2cc(NC(=O)c3ccco3)ccc21 | i
Cc1ccc(S(=O)(=O)N(C)c2ccccc2C(=O)Nc2ccc(CSc3ccccc3)cc2)cc1 | i
Cc1ccc(S(=O)(=O)N2CCC(C(N)=O)CC2)cc1C | i
C=CCOc1ccc(CNc2cccc(C(=O)O)c2)cc1 | i
O=C(Nc1nnc(COc2cccc(C(F)(F)F)c2)s1)C1CCCCC1 | 1%
CCc1ccc(NC(C)=O)c(C(=O)O)c1 | 1%
NS(=O)(=O)c1ccc(NC(=S)NCCc2ccccc2)cc1 | i
O=C(Nc1c(C(=O)Nc2ccccc2)cnn1-c1ccccc1)c1ccco1 | i
COc1ccccc1C(=O)N(C)c1nnc(-c2ccccc2)s1 | i
COc1ccc(-c2cn(C(=O)Nc3ccc(Cl)cc3)nc2N)c(OC)c1 | i
COc1ccc(-c2csc(NC(=O)C3COc4ccccc4O3)n2)cc1 (stereo unspecified) | i
COc1cccc(C2C(C(=O)c3ccc(C)o3)=C(O)C(=O)N2CCCN(C)C)c1OC (stereo unspecified) | i
O=C(Nc1cc(C(F)(F)F)ccc1N1CCOCC1)c1ccc(Br)o1 | i
CCCOc1cccc(C2c3c(oc4ccccc4c3=O)C(=O)N2c2nnc(C(C)C)s2)c1 (stereo unspecified) | i
Cc1ccc(S(=O)(=O)N(C)CC(=O)Nc2cccc(C)n2)cc1 | i
Cc1ccc(C(=O)Nc2ccc3c(c2)OCCO3)o1 | i
FC(F)(F)c1nc(N2CCCC2)nc2c1CCCCC2 | i
O=C(CSc1nc2ccccc2s1)Nc1ccc(F)c(F)c1 | u
O=c1oc2ccccc2cc1-c1csc(NCCc2ccccc2)n1 | 3%
O=C(NC1CCN(Cc2ccccc2)CC1)NC12CC3CC(CC(C3)C1)C2 | 1%
CCOC(=O)CNC(=O)COc1ccc(Cl)cc1Br | i
O=C1CC(SCCO)C(=O)N1c1ccc(Oc2ccccc2)cc1 (stereo unspecified) | i
CSc1cccc(NC(=O)CSCc2ccc([N+](=O)[O-])cc2)c1 | i
COc1cccc(NC(=O)COc2ccccc2I)c1 | i
COc1ccccc1NC(=O)C1=C(C)NC(=S)NC1c1ccc(F)cc1 (stereo unspecified) | i
COc1ccc(C2=NOC(C(=O)O)C2)cc1 (stereo unspecified) | i
Cc1cc(C)c(C)c(OCC(=O)Nc2cccc(I)c2)c1 | i
CC(Oc1cccc(Cl)c1)C(=O)NCc1cccnc1 (stereo unspecified) | i
CC1=CC(C)C(C(=O)O)C(C(=O)N2CCN(C)CC2)C1 (stereo unspecified) | i
COC(=O)c1ccc(OC(=O)COc2ccccc2C)cc1 | i
COc1ccc(N2C(=O)CC(Nc3ccc(Cc4nc5ccccc5[nH]4)cc3)C2=O)cc1 (stereo unspecified) | 1%
CSc1nsc(SCC(=O)NC2CCCCC2)n1 | u
C=CCOc1cccc(C2C(C(=O)c3cc4ccccc4o3)=C(O)C(=O)N2CCN(C)C)c1 (stereo unspecified) | i
COCC(=O)Nc1sc2c(c1C#N)CCC(C)C2 (stereo unspecified) | i
CC(C)c1ccc(/C=C(\C#N)c2nn(-c3ccccc3)c(N)c2C#N)cc1[N+](=O)[O-] | i
COc1ccc(-c2ccc(C#N)c(SCC(=O)OCc3ccccc3)n2)cc1 | 14µg/mL*
O=C(C1CCCO1)N1CCN(C(=S)NC2CCCCC2)CC1 (stereo unspecified) | i
CNC(=O)CN(C1CCCCC1)S(=O)(=O)c1c(C)cc(C)cc1C | i
COc1ccc(S(=O)(=O)NC2CC3CCC2C3)cc1C (stereo unspecified) | i
COc1ccc(N2CCN(C(=O)COc3ccc4ccccc4c3)CC2)cc1 | i
CC1CCN(CCCn2c(=S)[nH]c3ccccc3c2=O)CC1 | i
Cc1cc(NC(=O)CSc2ncccn2)no1 | i
Cc1cc(F)ccc1C(=O)Nc1ccc(Br)cc1 | i
Cc1c(Br)ccc(NC(=O)CSc2nnc(COc3ccccc3Cl)n2C)c1C | i
Cc1ccc2nc(-c3ccc(NC(=O)c4cccc(C)c4[N+](=O)[O-])cc3)sc2c1 | 5%
O=C(COc1ccccc1)N1CCN(CC2CC=CCC2)CC1 (stereo unspecified) | i
CCCCC(=O)Nc1cccc(NC(=S)NC(=O)c2ccc(OC)cc2)c1 | i
CCc1cccc(NC(=O)C(C)Oc2cccc(Cl)c2)c1 (stereo unspecified) | 27%
CSc1ccccc1C(=O)NCc1ccccc1Cl | 24%
COc1ccc(C(=O)NCCSCc2c(Cl)cccc2Cl)cc1 | i
CCOc1ccccc1NC(=O)COc1ccc(Br)cc1C | i
O=C(NCCCN1CCOCC1)c1ccccc1-c1ccccc1 | i
CCOc1cc(S(=O)(=O)N2CCN(c3ccccc3Cl)CC2)c(C)cc1C | 3%
Cc1cc(Br)ccc1OCC(=O)NC1CCCCCC1 | 0%

# Next part; the last 6 above are carried over.
molecule | Mtb H37Rv
CSc1ccccc1C(=O)NCc1ccccc1Cl | 24%
COc1ccc(C(=O)NCCSCc2c(Cl)cccc2Cl)cc1 | i
CCOc1ccccc1NC(=O)COc1ccc(Br)cc1C | i
O=C(NCCCN1CCOCC1)c1ccccc1-c1ccccc1 | i
CCOc1cc(S(=O)(=O)N2CCN(c3ccccc3Cl)CC2)c(C)cc1C | 3%
Cc1cc(Br)ccc1OCC(=O)NC1CCCCCC1 | 0%
Cc1cccc(-c2noc(COc3ccccc3C)n2)c1 | 2%
COc1ccc(C(=O)COc2cc(C)ccc2C)cc1 | 5%
CCC(C(=O)Nc1cc(C)c(Cl)cc1OC)c1ccccc1 (stereo unspecified) | i
O=c1[nH]c2ccc(S(=O)(=O)NC3CC3)cc2[nH]1 | i
Cn1c(Nc2ccc(F)cc2)nc2ccccc21 | i
COc1ccc(NC(=O)Nc2ccn(C)n2)c(OC)c1 | i
Cc1ccc(-c2noc(-c3ccc(Cl)cc3)n2)cc1 | 1%
CCOC(=O)CSc1nnc2n(C)c(=O)c3c(n12)-c1ccccc1CC31CCCCC1 | i
Clc1ccc(OCCCN2CCCCCC2)c(Br)c1 | i
Cc1cc(C)n(C(=O)c2ccc(S(=O)(=O)N3CCCCCC3)cc2)n1 | i
CC1CC(=O)NN=C1c1ccc(N(C)C)c([N+](=O)[O-])c1 (stereo unspecified) | i
COc1ccc(NC(=O)COc2cc(C)c(Br)c(C)c2)cc1 | i
COc1cc(C2NC(=O)NC(C)=C2C(=O)Nc2ccccc2C)cc(Br)c1O (stereo unspecified) | i
COc1ccc(C(=O)O)cc1NC(=S)NC(=O)c1cc2ccccc2cc1OC | i
Cc1ccccc1C1CC(c2cccs2)=NN1S(C)(=O)=O (stereo unspecified) | i
O=C(NCCc1ccc(Cl)cc1)c1ccc(Cl)s1 | 2%
COc1nnc(-c2ccc(N3CCOCC3)c(NC(=O)C3CCCCC3)c2)c2ccccc12 | i
Cc1cc(C)n(C(=O)c2ccc(S(=O)(=O)N3CCCC3)cc2)n1 | i
CCc1cccc(CC)c1NC(=O)CN(c1ccc(F)cc1)S(=O)(=O)c1ccccc1 | i
CCC(=O)Nc1ccc(Br)c2ccccc12 | i
Cc1ccc(C(=O)N2CCN(c3ccc(NC(=O)CSc4ccc(Cl)cc4)cc3)CC2)cc1 | i
O=C(CSc1cccc2cccnc12)Nc1ccccc1C(F)(F)F | i
O=C(c1ccc(S(=O)(=O)N2CCCCCC2)cc1)N1CCC(CN2C(=O)c3cccc4cccc(c34)C2=O)CC1 | 3%
COCc1nnc(NC(=O)COc2ccccc2C(C)(C)C)s1 | i
CN(CC(=O)NC1CCCCC1)S(=O)(=O)c1ccc2ccccc2c1 | i
Cn1c(SCC(=O)NCCc2ccccc2)nnc1-c1ccc(Cl)cc1Cl | i
CSc1cccc(NC(=O)CN(Cc2ccc(Cl)cc2)S(C)(=O)=O)c1 | i
Cc1cc(C)nc(NC(=S)Nc2ccccc2C(F)(F)F)c1 | 0%
O=C(NC(=S)NCCc1ccccc1)c1cccc(Cl)c1 | 5%
O=C(NCc1ccccc1)c1ccccc1NC(=O)C1CC(=O)N(c2ccc(F)cc2)C1 (stereo unspecified) | i
CC(=O)c1ccc2c(c1)c1ccccc1n2Cc1ccccc1 | 4%
O=C(COc1ccc(Cl)cc1Cl)Nc1nncs1 | i
O=C(c1cn(-c2ccccc2)nc1-c1cccnc1)N1CCCCC1 | i
Cc1c(Cl)cccc1NC(=O)CSc1nc2ccccc2[nH]1 | 13%
Cc1ccc(C(=O)NCC(=O)NC2CCCC2)cc1 | i
CCn1c(SCC(=O)Nc2ccc(C(=O)OC)cc2)nnc1-c1ccc(Cl)cc1Cl | i
CCc1nc2sc(C(=O)Nc3ccccc3Cl)c(N)c2c(C(F)(F)F)c1C | i
O=C(/C=C/c1cccc(C(F)(F)F)c1)Nc1ccc(Cl)cc1 | 5.1µg/mL*
c1cc(Nc2cccc3nonc23)c2nonc2c1 | 9%
Cc1cc(OCC(=O)Nc2ccc(S(=O)(=O)NCCc3ccccc3)cc2)cc(C)c1Cl | i
O=C(CCNc1n[nH]c(=O)[nH]c1=O)N/N=C\c1cccc(OCc2ccccc2)c1 | i
O=C(Cc1ccccc1Cl)NCc1ccccn1 | 0%
CCn1c(-c2cccc([N+](=O)[O-])c2)n[nH]c1=S | i
O=S(=O)(Nc1cc(Sc2ncn[nH]2)c(O)c2ccccc12)c1ccc(Br)cc1 | i
Cc1ccccc1C(=O)N1CCC(C(=O)Nc2ccc(F)cc2)CC1 | i
CCOc1cccc(OCCNC2CCCC2)c1 | i
O=C1CC(=O)c2sc3nc(-c4ccccc4)cc(-c4ccc(F)cc4)c3c2N1 | i
N#CSC1CC(=O)N(c2ccc(F)cc2)C1=O (stereo unspecified) | i
COc1ccc(-c2csc(NC(=O)c3ccc(C)c([N+](=O)[O-])c3)n2)cc1Br | i
COc1ccc(Cl)cc1NS(=O)(=O)c1cccs1 | 2%
COc1ccc(C)cc1NC(=O)COc1ccc([N+](=O)[O-])cc1 | i
CSc1nc2sc3c(c2c(=O)n1C1CCCCC1)CC(C(C)C)OC3 (stereo unspecified) | 0%
CC(Oc1ccc(Cl)cc1Cl)C(=O)NC1CC1 (stereo unspecified) | i
CSc1ccc(-c2nnn(CC(=O)N3CCOCC3)n2)cc1 | 1%
CC1(C)CC2CC(C)(CN2C(=O)C2CCN(S(=O)(=O)c3cccc([N+](=O)[O-])c3)CC2)C1 (stereo unspecified) | 2%
O=C(COc1ccc(Cl)cc1)Oc1ccc2ccccc2c1Br | i
CCn1c(NCc2cccs2)nc2ccccc21 | i
O=C1CCC(=O)N1OCC(=O)N(c1ccccc1)c1ccccc1 | i

# Rewritten with each value named: two of the compounds above.
CC(Oc1ccc(Cl)cc1Cl)C(=O)NC1CC1 (stereo unspecified)
  Mtb H37Rv = i
O=C1CC(=O)c2sc3nc(-c4ccccc4)cc(-c4ccc(F)cc4)c3c2N1
  Mtb H37Rv = i
